# A647 autofl – qHTS Assay for Spectroscopic Profiling in A647 Spectral Region; Compound fluorescence, A647 channel (570/671 nm), Tris buffer; max dye-equivalent concentration, M; 59,000 tested, under 10 active; active means above 1 µM dye equivalent; inconclusive means 0.1 to 1 µM; inactive means 0.1 µM or less;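 further: values scaled relative to a standard on each plate; highest value over a series up to 38 µM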
#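 Spectral profiling of library compounds in pH 8.0 Tris: 15 min room-temperature incubation, single ex/em pair (570/671 nm), response normalized to Alexa 647 equivalents.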
# TSHR ag – qHTS Assay for Agonists of the Thyroid Stimulating Hormone Receptor | 73,000 tested, 0.48% active | Thyrotropin receptor (Homo sapiens), P16473 | AID 926, 2007 | HEK293-CNG-TSHR cells (CNG channel as cAMP sensor), membrane potential dye, cAMP | Potency, µM (highest dose often 57.1 µM), inactives show at the highest dose activation, usual class: activators; active = well fitted activation curve of enough size with the parental cells flat; inconclusive = any curve in the parental cells; inactive = parental cells flat and receptor cells flat or falling; further: potency means the concentration at half of the fitted maximal effect; % of control where 0% means no effect; weak receptor curves with flat parental cells got no call and are not listed
# Target sequence (P16473 whole entry, looked up): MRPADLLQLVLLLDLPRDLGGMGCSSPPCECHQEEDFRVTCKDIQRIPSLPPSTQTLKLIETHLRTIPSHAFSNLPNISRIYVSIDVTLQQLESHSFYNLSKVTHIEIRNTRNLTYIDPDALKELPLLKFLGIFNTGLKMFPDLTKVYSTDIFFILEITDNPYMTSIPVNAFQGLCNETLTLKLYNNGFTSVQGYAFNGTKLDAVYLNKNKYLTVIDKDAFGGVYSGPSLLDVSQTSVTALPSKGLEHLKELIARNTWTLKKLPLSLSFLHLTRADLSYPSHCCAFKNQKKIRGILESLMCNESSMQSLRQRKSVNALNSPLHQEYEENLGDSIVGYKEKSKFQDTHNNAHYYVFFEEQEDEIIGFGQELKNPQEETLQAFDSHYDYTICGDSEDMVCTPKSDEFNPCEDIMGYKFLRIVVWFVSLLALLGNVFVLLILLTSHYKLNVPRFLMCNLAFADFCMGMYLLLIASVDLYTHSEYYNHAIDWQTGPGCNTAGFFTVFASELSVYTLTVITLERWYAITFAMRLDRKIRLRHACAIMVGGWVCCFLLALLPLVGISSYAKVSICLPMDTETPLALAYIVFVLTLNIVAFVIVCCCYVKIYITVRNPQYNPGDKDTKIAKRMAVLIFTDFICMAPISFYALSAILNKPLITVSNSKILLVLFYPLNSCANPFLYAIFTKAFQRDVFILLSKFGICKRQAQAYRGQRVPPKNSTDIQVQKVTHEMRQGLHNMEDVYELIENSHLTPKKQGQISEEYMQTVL
#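 HEK 293 cells stably expressing TSHR and a modified CNG channel, with CNG-only parental cells as counterscreen, were preloaded 60 min at room temperature with membrane potential dye containing 100 uM RO 20-1724. Compound exposure was 30 min, and depolarization was read as fluorescence at 590 nm.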
# AID923 – qHTS Assay for Allosteric/Competitive Inhibitors of Caspase-1: Spectroscopic Profiling in AFC Spectral Region; compound fluorescence, AFC spectral region (405/520 nm); almost no hit is shown here; Potency, µM (titrated, usually from 57.5 µM), inactives show at the highest dose fluorescence increase, hits mostly activators; 75,000 tested, 1.1% active; active means well fitted activation curve with a large enough effect; inconclusive means small, poorly fitted or top-dose-only effect;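 further: potency means the concentration at half of the fitted maximal effect; 0% is about no effect; scaled to a free AFC standard on each plate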
#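 Baseline compound fluorescence (AFC region, 405 nm ex/520 nm em) taken from the intercept of kinetic reads with 50 nM caspase-1 and 5 uM Ac-WEHD-AFC; normalized to an on-plate AFC standard curve; compounds titrated up to 57 uM.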
# Resorufin fluor – qHTS Assay for Spectroscopic Profiling in Resorufin Spectral Region. Compound fluorescence, resorufin region 547/598 nm, buffer; active compounds read high. max dye-equivalent concentration, M. 59,000 tested, 0.04% active. AID 588, 2007; active = above 10 nM dye equivalent; inconclusive = 1 to 10 nM; inactive = 1 nM or less; a few of its hits are not listed in these tables; further: highest value over a series up to 38 µM
#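 Dye-equivalent concentration values derive from comparing each well's 547/598 nm fluorescence against resorufin standards included on every plate. Incubation was 15 min at room temperature in 100 mM Tris, pH 8.0.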
# A488 autofl – qHTS Assay for Spectroscopic Profiling in A488 Spectral Region; compound autofluorescence, A488 spectral region, dye equivalency; active compounds read high; 59,000 tested, 0.1% active; max dye equivalency, M; AID 591, 2007; active = above 10 nM dye equivalent; inconclusive = 1 to 10 nM; inactive = 1 nM or less; about half of its hits are not listed in these tables;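 further: highest value over a series up to 38 µM; compound alone in buffer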
#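 Compounds pin-transferred into 100 mM Tris buffer, pH 8.0, incubated 15 min at room temperature, then imaged with 480 nm excitation/540 nm emission filters. Fluorescence converted to Alexa 488 dye-equivalent concentration via an on-plate six-point A488 standard curve.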
# The depositor's hits bear a star; i = inactive; ? = inconclusive; . = no result given; & = joins results of further samples; [ ] = another dose, or the depositor's remark. Not all compounds are listed; rates above refer to the full screens.
# Below each SMILES – A647 autofl | TSHR ag | AID923 | Resorufin fluor | A488 autofl
[1] O=c1cc(CO)oc(CN2CCN(c3ccccc3F)CC2)c1O
  3e-09 | 3% | -0.1% | i | i
[2] CCC(=O)N1CCc2cc(S(=O)(=O)NCCC(=O)N3CC=C(c4ccccc4)CC3)ccc21
  5.2e-08 | ? | -1.9% | i | i
[3] O=C(O)c1ccc(/C=N\N=C2c3ccccc3-c3ccccc32)cc1
  2.7e-08 | 6%[11.4 µM] | 1.0%[11.5 µM] | i | i
[4] CC1CC(C)CN(CCCNC(=O)c2ccc(CS(=O)(=O)Cc3ccccc3F)o2)C1 (configuration not stated)
  1e-09 | 1% | 0.8% | i | i
[5] CCOC(=O)C1CCN(C(=O)COc2ccc(S(=O)(=O)NC(C)C)cc2Cl)CC1
  1e-09 | 4% | -2.0% | i | i
[6] CCCCn1c(SCC(=O)O)nc2ccccc21
  2.7e-09 | 6% | 0.6% | i | i
[7] C=CCN(C(=O)Cn1nnc2ccccc21)C(C(=O)NCCOC)c1ccc(OC)cc1OC (configuration not stated)
  4.6e-08 | 5% | 1.5% | i | i
[8] COCCCN1CN(S(=O)(=O)c2ccc(Cl)cc2)c2nc3ccccc3nc21
  4.7e-09 | 22% | 0.5% | i | i
[9] Cc1ccccc1NCN1C(=O)C2C3C=CC(C3)C2C1=O (configuration not stated)
  . | -5% | 0.9% | . | .
[10] CCOc1ccc(-c2cc(CCCC(=O)NCCCOC)no2)cc1
  1.4e-08 | -2% | 1.9% | i | i
[11] O=C1c2ccccc2C(O)N1Cc1ccccc1 (configuration not stated)
  1e-09 | . | -0.7% | i | i
[12] CN(CC(=O)N1CC=C(c2ccccc2)CC1)S(=O)(=O)c1ccc2c(c1)c(=O)n(C)c(=O)n2C
  . | 7% | -1.4% | . | .
[13] COc1ccc(CCN(Cc2nc3ccccc3c(=O)[nH]2)C(=O)c2ccco2)cc1
  1e-09 | 4%[11.4 µM] | 0.9% | i | i
[14] Cc1cc2cc(CN3C(=O)c4ccccc4C3=O)ccc2[nH]1
  2e-08 | -1% | 2.1% | i | i
[15] CC(=O)c1c(C)n(-c2ccccc2)c2ccc(OCC(O)CN3CCOCC3)cc12 (configuration not stated)
  4.4e-09 | ? | -2.8% | i | i
[16] CCOC(=O)c1ccccc1NC(=O)c1cc(S(=O)(=O)N2CCOCC2)ccc1F
  1.7e-09 | 15% | 2.7% | i | i
[17] COC(=O)c1cc(NC(=O)CCc2c(C)nc3ncnn3c2C)cc(C(=O)OC)c1
  3.8e-08 | 4%[11.4 µM] | 1.1% | i | i
[18] O=C(c1cc(-c2ccc(Cl)cc2Cl)on1)N1CCOCC1
  3.2e-08 | -10% | -0.3% | i | i
[19] CC1Cc2ccccc2N1S(=O)(=O)c1cnc[nH]1 (configuration not stated)
  5.2e-09 | -5% | -1.0% | i | i
[20] CC(C)CC(NC(=O)C(CC(C)C)NC(=O)OC(C)(C)C)C(=O)O (configuration not stated)
  1.2e-08 | ? | 1.9% | i | i
[21] Cc1cc(C(F)(F)F)nc(Nc2nc(C)c3ccccc3n2)n1
  1e-09 | 7% | 0.7% | i | i
[22] C=C(C)C(=O)OCC(C)C
  . | ? | 2.9% | . | .
[23] COc1ccc(CCNC(=O)CC(NS(=O)(=O)c2ccc(NC(C)=O)cc2)C(C)C)cc1OC (configuration not stated)
  . | 1% | -0.7% | . | .
[24] Cc1cc(C)c(NC(=O)CCCN2CCN(C)CC2)c(C)c1
  2.8e-08 | 2% | 0.2% | i | i
[25] CCCNC(=O)OC[C@@H]1O[C@H](CCO/N=C\c2ccc(C(=O)N3[C@H](c4ccc(C)cc4)[C@@H](C)CC[C@H]3C(=O)OC)cc2)C=C[C@@H]1Oc1ccc(OC)cc1
  . | -2%[11.4 µM] | -2.3%[11.5 µM] | . | .
[26] CCCCN1C(=O)CC(Nc2ccc(CC)cc2)C1=O (configuration not stated)
  1e-09 | 13% | -1.2% | i | i
[27] OCCNc1ncnc2c1ncn2Cc1ccccc1
  3.4e-08 | 0% | -0.5% | i | i
[28] COc1ccc(O[C@H]2C=C[C@@H](c3ccccc3)O[C@H]2CO/N=C\C[C@@H]2C=C[C@H](OC(C)=O)[C@H](COC(C)=O)O2)cc1
  . | 23%[11.4 µM] | 2.1%[11.5 µM] | . | .
[29] O=Cc1ccsc1B(O)O
  . | 3% | 1.5% | . | .
[30] COc1ccccc1-c1ccc2ncnc(N3CCNCC3)c2c1
  1e-09 | 11% | 0.9% | i | i
[31] O=C(O)CC(C(=O)NCc1ccccc1)C1CCCO1 (configuration not stated)
  5.3e-09 | 3% | 0.0% | i | i
[32] CCOC(=O)c1c(N)nn(C(C)=O)c1-c1ccccc1
  1e-09 | . | 1.4% | i | i
[33] O=C(Cn1cccc1C(=O)c1ccccc1)NCCN1CCCCCC1
  2.5e-08 | 4%[11.4 µM] | -0.2% | i | i
[34] S=c1[nH]nc(-c2ccncc2)n1Cc1ccco1
  5.7e-09 | 3% | -1.2% | i | i
[35] CCn1c(SCc2ccccc2)nnc1-c1ccc(S(=O)(=O)N2CCCCC2)cc1
  1e-09 | ? | 0.0% | i | i
[36] COc1ccc(CCNS(=O)(=O)c2ccc(S(=O)(=O)N3CCCC3)cc2)cc1OC
  7.7e-09 | 5% | -1.0% | i | i
[37] COC(=O)c1sc2nc3c(cc2c1N)C(=O)CC(C)(C)C3
  1e-09 | -5% | -1.5% | i | i
[38] CS(=O)(=O)Nc1cccc(-c2nc(NCc3cccnc3)c3ccccc3n2)c1
  1e-09 | . | -2.1% | i | i
[39] COc1ccc(OC)c(NC(=O)COC(=O)c2ccc(S(=O)(=O)N3CCOCC3)cc2)c1
  5.9e-08 | -1% | -1.7% | i | i
[40] CSCSC1=C(C#N)C(c2ccc(Cl)cc2)C(C(C)=O)=C(C)N1 (configuration not stated)
  . | ? | 6.0% | . | .
[41] O=C1CCCN1CCC1CCN(C2CC(=O)N(Cc3ccc(N4CCCC4=O)cc3)C2=O)CC1 (configuration not stated)
  1e-09 | 5% | 1.1% | i | i
[42] CCOC(=O)Cn1c(=O)oc2cc(S(=O)(=O)Nc3cc(Cl)ccc3OC)ccc21
  . | -21% | -1.3% | . | .
[43] COCCNC(=O)CN1C(=O)CC(C)(C)S(=O)(=O)c2ccccc21
  . | 7% | 1.3% | . | .
[44] COc1ccc(-c2cn3c(C)c(C(=O)Nc4cc(NC(C)=O)ccc4OC)sc3n2)cc1
  1e-08 | 0% | 19% | i | i
[45] CCCCC(=O)NCCc1cc2c(C)ccc(C)c2[nH]c1=O
  . | -4% | 6.8% | . | .
[46] Cn1c(Cn2c(=O)sc3ccccc32)nnc1SCC(=O)N1CCCc2ccccc21
  . | -10% | 1.5% | . | .
[47] CCn1c(SCC(=O)OC2CCCCC2)nnc1-c1ccncc1
  2.7e-08 | 4% | -2.3% | i | i
[48] C[C@@H]1Oc2ccc(C(=O)C[C@@H](C(=O)O)c3ccc4c(c3)OCO4)cc2O1
  1.6e-09 | 5%[11.4 µM] | -1.4%[11.5 µM] | i | i
[49] O=C1NC(c2ccncc2)Nc2ccccc21 (configuration not stated)
  5.9e-09 | -1% | -0.8% | i | i
[50] COCCN(CC(=O)NCc1ccc(F)cc1)C(=O)CCC(=O)Nc1ccccn1
  1e-09 | 2% | -1.2% | i | i
[51] Nc1nc2ccc(Cl)cc2c2nc(-c3ccco3)nn12
  2.3e-09 | 22%&6% | -2.8% | i | i
[52] CC(=O)N1C=CN(C(C)=O)C(c2cn(C)c3ccccc23)C1c1cn(C)c2ccccc12 (configuration not stated)
  . | -3%[11.4 µM] | -1.2% | . | .
[53] CSc1ccc(Cl)c(C(=O)OCC(=O)N2CCOCC2)c1
  1.4e-09 | -4% | -0.3% | i | i
[54] Cc1cccc(-c2noc(-c3ccccc3C(=O)NCC3CCCO3)n2)c1 (configuration not stated)
  1e-09 | ? | 0.4% | i | i
[55] CCN(CC)CCCN1C(=O)C(=O)/C(=C(/O)c2cc(C)ccc2C)C1c1cccnc1 (configuration not stated)
  2.2e-09 | 1% | 0.0% | i | i
[56] Cc1[nH]c2ccccc2c1C(=O)CN1CCCCC1CCO (configuration not stated)
  5.2e-09 | 11% | -0.2% | i | i
[57] Cn1c(=O)c2c(nc(CN3CCN(c4ccccc4F)CC3)n2CCN2CCOCC2)n(C)c1=O
  4e-08 | 12% | 2.7% | i | i
[58] O=C(COC(=O)CCS(=O)(=O)c1ccc(Cl)cc1)Nc1ncc(Cl)cc1Cl
  3.5e-08 | -2% | 1.7% | i | i
[59] CCOC(=O)C1CCN(CC(=O)Nc2c(C(=O)OC)[nH]c3cccc(Cl)c23)CC1
  4.2e-08 | 10% | 0.8% | i | i
[60] Cc1c(N=C2SCC(=O)N2c2c(C)n(C)n(-c3ccccc3)c2=O)c(=O)n(-c2ccccc2)n1C
  3.2e-09 | . | -0.5% | i | i

# (continued)
# Below each SMILES – A647 autofl | TSHR ag | AID923 | Resorufin fluor | A488 autofl
[61] O=C(O)C1CC(=O)N(Cc2ccc(F)cc2)C1 (configuration not stated)
  2.1e-08 | 2%[11.4 µM] | -1.1% | i | i
[62] CCOC(=O)c1cc(C(O)(C(F)(F)F)C(F)(F)F)c(/N=C/N(C)C)o1
  1e-09 | -6% | -1.0% | i | i
[63] CCN(Cc1cc2ccccc2[nH]c1=O)C(=O)C(C)C
  1.4e-09 | . | -1.7% | i | i
[64] Cc1sc2nc(SCC(=O)c3cccs3)n(Cc3ccco3)c(=O)c2c1C
  5.3e-08 | ? | -1.8% | i | i
[65] CCCCC(=O)OCC(=O)Nc1ccc(OC(F)F)cc1
  5e-09 | -3% | -0.6% | i | i
[66] CC(C)=CCC/C(C)=C/CO/N=C1/C[C@@H](O)[C@@H](O)[C@@H]2[C@@H]3C(=O)N(Cc4ccc5c(c4)OCO5)C(=O)[C@H]3CC[C@H]12
  . | -7%[11.4 µM] | 0.1%[11.5 µM] | . | .
[67] COc1ccc(C(C)(C)C)cc1S(=O)(=O)N1CCN(C)CC1
  1.3e-08 | 2% | 0.8% | i | i
[68] CCO[P@]1(=O)OC[C@@H]2O[C@H](n3cnc4c(N)ncnc43)[C@H](O)[C@@H]2O1
  1e-09 | 0%[11.4 µM] | -2.8%[11.5 µM] | i | i
[69] COc1ccc(-n2nnnc2SCC(=O)Nc2cccc(NC(C)=O)c2)cc1OC
  7.9e-09 | 0% | 0.3% | i | i
[70] Cc1noc(C)c1-c1ccc2ncnc(NCCN3CCOCC3)c2c1
  2.8e-08 | 7% | -0.8% | i | i
[71] CC1Cn2c(nnc2-c2ccccc2O)S1 (configuration not stated)
  . | 3% | -0.3% | . | .
[72] COC(=O)CC1=Nc2ccccc2NC(=O)C1
  1e-09 | 4% | 1.2% | i | i
[73] CCCOc1ccccc1C(=O)N(Cc1cccs1)C1CCS(=O)(=O)C1 (configuration not stated)
  1e-09 | 10% | -1.4% | i | i
[74] CCCCNc1nc2c(c(=O)n(C)c(=O)n2C)n1Cc1cccc(OC)c1
  6.9e-09 | . | . | i | i
[75] O=C(NCC1CCCO1)c1ccc(Cl)c(F)c1F (configuration not stated)
  6.3e-09 | -1% | -2.6% | i | i
[76] O=C(c1ccc(CNc2c(N3CCCC3)c(=O)c2=O)cc1)N1CCc2ccccc2C1
  . | -3% | 2.9% | . | .
[77] CCCn1c(C)nc2c(NCC3CCCN3CC)nc(C)nc21 (configuration not stated)
  . | 1% | 1.4% | . | .
[78] CCOC(=O)CC(=O)CSc1nc(N)c(C#N)c(-c2ccc(F)cc2)c1C#N
  7.5e-09 | . | . | i | i
[79] COc1ccc(NC(=O)Nc2ccc(OCC(=O)N3CCOCC3)cc2)cc1OC
  . | -7%[11.4 µM] | -1.8% | . | .

# Assay outcomes: PubChem BioAssay, National Center for Advancing Translational Sciences (NCATS)
